TAR Tat displ: TAR RNA-Tat peptide displacers, HIV-1, primary screen, biochemical, FRET, FAM/TAMRA-labeled Tat; HIV-1 TAR RNA, Tat peptide displacement FRET; active compounds read high; z-score (no concentration beside the values); 100,000 tested, 0.6% active; AID 1259389, 2018;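 note: score is relative to mean and SD of negative controls; some compounds called inactive have numbers as strong as hits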
CDC25B-CDK2 inh: primary biochemical HTRF screen for blockers of M-phase inducer phosphatase 2 binding to CDK2/cyclin A. HTRF CDC25B-CDK2/CyclinA binding, anti-His/anti-Flag; active compounds read high. z-score (test concentration not listed). AID 1259370, 2018. 94,000 tested, 0.72% active. P30305+P24941;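 note: score is relative to mean and SD of negative controls; strong numbers were not always called active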
* = called active by the depositor; nt = not tested or not shown.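 Rule for the calls: active = z-score from 3 up in half or more of its runs; inactive = the rest.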

Sequence of screens – CDC25B-CDK2 inh	TAR Tat displ
1. Cc1ccc(S(=O)(=O)Nc2ccc3oc(=O)sc3c2)c(C)c1
    -2.3	0.11
2. Cc1cccc(Cn2c(=O)n(C(C)C)c(=O)c3oc4ccccc4c32)c1
    nt	1.6
3. COC(=O)c1ccc(C2C(C#N)=C(N)Oc3cc(O)ccc32)cc1 (configuration not stated)
    -1.1	-1.1
4. Cc1ccc(-c2nc3nc(C)cc(NCCO)n3n2)cc1
    -0.37	0.29
5. Cc1c(Cl)cccc1-n1c(=O)c(C#N)cc2c(=O)n3ccccc3nc21
    -0.74	-0.28
6. Cc1nnc(N2C(=O)C(=O)/C(=C(/O)c3ccc(F)cc3)C2c2cccc(Oc3ccccc3)c2)s1 (configuration not stated)
    -1.8	-1.2
7. O=C(Nc1ccccc1)c1cc2ccccc2o1
    0.85	0.98
8. CCSC1=C(C#N)C(c2ccc(F)cc2)CC(=O)N1 (configuration not stated)
    0.18	-0.95
9. COc1ccc(OC)c(Nc2cc(-c3ccccc3)ncn2)c1
    0.85	1.3
10. Cc1c(NS(=O)(=O)c2ccc3c(c2)NC(=O)CC(=O)N3)c(=O)n(-c2ccccc2)n1C
    -1.3	nt
11. CCCN1CCN(C(=O)C2=Cc3sc4c(c3CS2)CCCC4)CC1
    nt	-3.6
12. CCOc1ccc2nc(NC(=O)c3cccs3)sc2c1
    -1.8	1.2
13. Cc1cc(C)nc(SCC(=O)c2cccs2)n1
    -0.73	-7.2
14. N#Cc1ccc(N2CCOCC2)nc1
    0.74	nt
15. COc1cc(C)c2c(=O)c(Oc3ccccc3)c(C)oc2c1
    0.63	-0.8

Numbers 2 to 4 from above:
Sequence of screens – CDC25B-CDK2 inh	TAR Tat displ
2. Cc1cccc(Cn2c(=O)n(C(C)C)c(=O)c3oc4ccccc4c32)c1
    nt	1.6
3. COC(=O)c1ccc(C2C(C#N)=C(N)Oc3cc(O)ccc32)cc1 (configuration not stated)
    -1.1	-1.1
4. Cc1ccc(-c2nc3nc(C)cc(NCCO)n3n2)cc1
    -0.37	0.29

Further entries follow.
Sequence of screens – CDC25B-CDK2 inh	TAR Tat displ
16. CCCCOC(=O)c1ccc(OS(=O)(=O)c2ccc(Cl)cc2)cc1
    -1.7	nt
17. O=C(NCc1ccco1)C1CCN(c2nnc(-n3cccc3)s2)CC1
    -1.1	0.01
18. CCCn1c(SCc2ccc(F)cc2)nc2c1c(=O)n(C)c(=O)n2C
    -2.1	3
19. C=CCc1ccccc1OCC(O)CN1CCN(c2ccccc2)CC1 (configuration not stated)
    0.15	2.3
20. Cn1c(=O)c2cc(S(=O)(=O)Nc3cccc(F)c3)ccc2n(C)c1=O
    -1.1	nt
21. Cc1ccc2oc3c(c(=O)c2c1)C(c1cccc(O)c1)N(Cc1ccc2c(c1)OCO2)C3=O (configuration not stated)
    0.22	2
22. O=C(CCc1nnc2ccc(NCc3ccccc3)nn12)NCC1CCN(C2CCCC2)C1 (configuration not stated)
    nt	0.84
23. CCN1CCN(c2ncnc3scc(-c4ccc(Cl)cc4)c23)CC1
    0.07	1.2
24. COc1ccc(-c2noc(-c3cccnc3N3CCCC3)n2)cc1
    1.4	0.64
25. O=C(CSc1nc2ccccc2c2nc3ccccc3n12)NCC1CCCO1 (configuration not stated)
    0.64	nt
26. CCOCCCNC(=O)C(CC)n1ncn2c(cc3occc32)c1=O (configuration not stated)
    1.4	0.01
27. Cc1ccc(C(CNC(=O)c2cccs2)N2CCC(C)CC2)o1 (configuration not stated)
    -1.5	1.6
28. CCCCn1cc(S(=O)(=O)c2ccc(OCC)cc2)c(=O)c2ccccc21
    -2	-0.97
29. COCCNC(=O)c1cnc2sc(N3CCCC(C)C3)nn2c1=O (configuration not stated)
    nt	-0.15
30. CC(C)(C)NC(=O)C1c2ccccc2Oc2ccccc21
    -3.1	0.4
31. O=C(Nc1ccccc1Cl)N1CCCN(c2nc(-c3ccccc3)ns2)CC1
    0.5	nt
32. NC(=O)C1CCN(C(=O)c2ccc(N3CCCc4ccccc43)s2)CC1
    nt	0.84
33. CC(=O)c1ccccc1NC(=O)/C=C\C(=O)O
    -1.2	nt
34. CCOC(=O)c1cc(S(=O)(=O)N2CCC(C(N)=O)CC2)cn1C
    -1	1.7
35. CCOC(=O)c1c(C)oc2nc(C)nc(N3CCCC3)c12
    nt	1.2
36. Clc1ccc(-c2noc(-c3cccnc3N3CCOCC3)n2)cc1
    -0.11	1
37. CC(C)(C)C1CCc2c(sc3nnn(CC(=O)N4CCCC4)c(=O)c23)C1 (configuration not stated)
    -1.6	-0.11
38. CC1(C)CC(=O)C2=C(C1)Nc1ccccc1NC2c1c(F)cccc1Cl (configuration not stated)
    0.92	0.52
39. O=c1c(S(=O)(=O)c2cc(F)cc(F)c2)c[nH]c2cc(F)c(Cl)cc12
    -2.6	0.98
40. O=C(CCc1nnc2ccc(NCc3ccco3)nn12)N1CCOCC1
    nt	-0.47
41. CCCn1c(=O)oc2cc(NS(=O)(=O)c3cc(Br)cc4c3N(C(C)=O)CC4)ccc21
    nt	-0.17
42. FC(F)(F)c1cc(-c2ccc(Cl)cc2)nc(N2CCOCC2)n1
    -0.12	nt
43. O=C(Cn1cc(S(=O)(=O)c2ccc(F)cc2)c(=O)c2cc(F)ccc21)Nc1ccc2c(c1)OCO2
    -0.58	0.78
44. Fc1ccc(-c2nnc3ccc(SCc4ccccc4)nn23)cc1
    -7.3	nt
45. Cc1ccc(C)c(NC(=O)c2cc3n(n2)C(C(F)(F)F)CC(c2ccc4c(c2)OCO4)N3)c1 (configuration not stated)
    nt	0.56
46. COc1ccccc1-n1c(-c2ccc(F)cc2)n[nH]c1=S
    -1.3	nt
47. O=C(CSc1nnc(-c2cccs2)n1-c1ccccc1)c1ccccc1
    nt	0.27
48. Cc1csc(SCC(=O)NNC(=O)c2ccc([N+](=O)[O-])o2)n1
    -1.4	nt
49. N#CC(C#N)=C1c2cc(S(N)(=O)=O)cc([N+](=O)[O-])c2-c2c1cc(S(N)(=O)=O)cc2[N+](=O)[O-]
    -1.1	nt
50. O=C(O)CCc1nn2c3ccccc3n(CC(=O)c3ccccc3)c2nc1=O
    -1.5	nt
51. CCc1nn(CC(=O)NCCN2CCOCC2)c(=O)c2cc3sccc3n12
    -0.1	-0.69
52. COc1ccc(C(=O)c2cn(Cc3ccc(F)cc3)c3cc4c(cc3c2=O)OCCO4)cc1OC
    -1.8	-1.8
53. Cc1ccc(-c2nnc(SCC(=O)OC(C)C)o2)cc1
    -0.35	1.1
54. C=CCOC(=O)Oc1ccc2c(=O)c(-c3ccccc3OC)coc2c1
    -0.13	nt
55. Cc1ccc(-c2nnc3ccc(SCC(=O)Nc4nccs4)nn23)cc1
    -1	nt
56. CCSCCOC(=O)C1=C(C)NC2=C(C(=O)CCC2)C1c1ccc(OC)c(Br)c1 (configuration not stated)
    -0.93	0.41
57. O=S(=O)(Nc1ccc(-c2nnc(-c3ccccc3)o2)cc1)c1cccc2nsnc12
    nt	1.8
58. CC1CCCN(S(=O)(=O)c2ccc(CN3C(=O)c4cccnc4C3=O)s2)C1 (configuration not stated)
    nt	0.55
59. COc1cc(OC)cc(-c2nc(N)c3c(C)c(-c4ccc(OC)c(OC)c4)sc3n2)c1
    -3.2	nt
60. CCn1c(SCC(=O)N2CCCCC2)nc2c(c1=O)SCC2
    -0.56	-0.12
61. OCCCc1[nH]nc(-c2ccc(Cl)cc2)c1Br
    1.1	nt
62. O=C(CSc1ncc(CO)n1Cc1ccc(Cl)cc1)NCc1ccc2c(c1)OCO2
    nt	0.97
63. COC(=O)Cn1cnc2c(C#N)c3n(c2c1=O)CCCC3
    -1.9	1.4
64. Cc1cccc(-c2noc(C3CCCN(S(=O)(=O)c4ccc(C)c(C)c4)C3)n2)c1 (configuration not stated)
    nt	0.05
65. COc1ccc(-c2onc(C)c2C)cc1S(=O)(=O)NCC1CCCO1 (configuration not stated)
    nt	0.36
66. COC(=O)c1ccccc1Sc1cccc2cccc(C#N)c12
    -0.2	nt
67. Cc1ccc(-c2nnc3n(CCCOC(C)C)c(=O)c4ccccc4n23)s1
    -1.6	0.87
68. CCCNS(=O)(=O)c1ccc2c(c1)CC(C)N2C(=O)C1CC1 (configuration not stated)
    nt	0.52
69. Cc1cccc(N2CCN(c3cc(C)nc4nc(-c5ccco5)nn34)CC2C)c1 (configuration not stated)
    nt	-2.5
70. O=C1c2ccccc2-c2c1c1ccccc1c(=O)n2Cc1ccc2c(c1)OCO2
    -1.8	nt
71. O=C(CSc1nc2ncccc2c(=O)n1-c1ccccc1)Nc1ccccc1F
    -2.3	-1.7
72. CCCCOc1ccc2c3c(c(=O)oc2c1)CCC3
    -0.25	nt
73. Cc1ccccc1C(=O)Nc1c(C)nc2sccn2c1=O
    nt	1.7
74. COCCCN1CNc2c(c(=O)n(C)c(=O)n2C)C1
    -1.2	-1.1
75. CCOC(=O)c1nc(Nc2cc(C)ccc2C)c2c(C)noc2n1
    nt	0.44

Remaining list, next part.
Sequence of screens – CDC25B-CDK2 inh	TAR Tat displ
76. Cc1ccc(OC(=O)c2cc(-c3ccc4c(c3)OCCO4)on2)cc1C
    -0.52	-1.6
77. CC(=O)N1CCc2cc(S(=O)(=O)CCC(=O)N3CCn4c3nc3ccccc34)ccc21
    nt	-0.52
78. CC1CC(N=Cc2ccc([N+](=O)[O-])s2)CC(C)(C)C1 (configuration not stated)
    -1.4	nt
79. Cc1csc(NC(=O)CSc2nc(C3CCCC3)nc3c2c(=O)n(C)c(=O)n3C)n1
    nt	1.2
80. CC(=O)c1c(N2CCOCC2)nc(=O)n(-c2ccccc2)c1C
    0.15	nt
81. Cc1cc(-n2ccnc(NCCC(C)C)c2=O)ccc1Br
    nt	-2.3
82. Cc1ccc(-c2nc3ccccn3c2Nc2ccc(F)cc2)o1
    -1.2	nt
83. CC(C)(C)c1ccc(-c2nn3c(-c4ccncc4)nnc3s2)cc1
    -1.3	1.8
84. CC1CCN(C(=O)c2cc(S(=O)(=O)N3CCCC(C(=O)Nc4nccs4)C3)c[nH]2)CC1 (configuration not stated)
    nt	1.6
85. O=c1c2nccnc2nc(SCc2ccccc2Cl)n1Cc1ccc2c(c1)OCO2
    nt	-2.2
86. O=S(=O)(NCc1cccs1)c1c(F)cccc1F
    -1	nt
87. CC1CCCC(C)N1CCCN1C(=O)c2ccc(-c3ccco3)n2CC1(C)C(=O)NC1CCCC1 (configuration not stated)
    nt	-0.43
88. O=C(Nc1ccc(S(=O)(=O)N2CCOCC2)cc1)c1sc2ccccc2c1Cl
    0.03	0
89. COc1ccc([N+](=O)[O-])c(OC)c1C(=O)Nc1ccc(F)c(Cl)c1
    0.55	nt
90. COC(=O)c1c(NC(=O)CSc2nc3c(c(=O)[nH]2)CCCC3)sc2c1CCC(C)C2 (configuration not stated)
    -0.92	1.9
91. O=C(Nc1ccccc1)N1CCN(c2nsc3ccccc23)CC1
    -0.94	-0.42
92. O=C(NCCN1CCCCC1)C1CCCN(c2ncnc3c2nc2n3CCCCC2)C1 (configuration not stated)
    nt	-0.11
93. COC(=O)CSc1nc(-c2ccco2)nc2c1c(=O)n(C)c(=O)n2C
    -1.9	nt
94. O=C(Nc1cnc2sc3ccccc3n2c1=O)c1ccc(F)cc1
    0.22	0.58
95. O=C(Cc1cccs1)NCc1n[nH]c(=O)c2ccccc12
    nt	1.1
96. O=C(c1ccc(Cl)cc1)N1CCc2cc(-c3ccsc3)ccc21
    -1.5	0.58
97. COc1ccc(-c2nnc3ccc(SCC(=O)N4CCCC4)nn23)cc1OC
    -1.4	nt
98. CCc1ccc2c(c1)C1C=CCC1C(c1ccc(C(=O)O)cc1)N2 (configuration not stated)
    1.9	nt
99. O=C(CSCCc1ccccn1)Nc1ccccc1Cl
    nt	0.62
100. O=C(Nc1ccc(Cl)cc1)N1CCCC1c1ccco1 (configuration not stated)
    -2.8	0.7
101. CCC1c2ccc(C)n2CCN1C(=O)Nc1ccc(Br)c(C)c1 (configuration not stated)
    -1.7	-9.6
102. Cc1cc(C)cc(NS(=O)(=O)c2csc(C(N)=O)c2)c1
    nt	1.4
103. COc1ccc(C2CC(=O)Nc3cc(OC)c(OC)cc32)cc1Br (configuration not stated)
    -1.6	-0.63
104. CCOc1ncnc2c1[nH]c1ccc(OC)cc12
    1.2	1.7
105. CCc1nc2ccccc2n1CC(O)COc1cccc(C)c1C (configuration not stated)
    -0.05	0.5

Given as labelled records: part of the list above.
#97 COc1ccc(-c2nnc3ccc(SCC(=O)N4CCCC4)nn23)cc1OC
  CDC25B-CDK2 inh: -1.4
  TAR Tat displ: nt
#98 CCc1ccc2c(c1)C1C=CCC1C(c1ccc(C(=O)O)cc1)N2 (configuration not stated)
  CDC25B-CDK2 inh: 1.9
  TAR Tat displ: nt

Some of these compounds in order of length of the SMILES, largest number first.
Sequence of screens – CDC25B-CDK2 inh	TAR Tat displ
96. O=C(c1ccc(Cl)cc1)N1CCc2cc(-c3ccsc3)ccc21
    -1.5	0.58
102. Cc1cc(C)cc(NS(=O)(=O)c2csc(C(N)=O)c2)c1
    nt	1.4
100. O=C(Nc1ccc(Cl)cc1)N1CCCC1c1ccco1 (configuration not stated)
    -2.8	0.7

Next part.
Sequence of screens – CDC25B-CDK2 inh	TAR Tat displ
106. CCC(C(=O)NC(C)C)N1C(=O)CCn2nc(C)cc21 (configuration not stated)
    nt	0.07
107. Cn1cnc(S(=O)(=O)NCc2c(Cl)cccc2Sc2ccc(Cl)cc2)c1
    -0.87	nt
108. CC(=O)Nc1ccc2nc(NC(=O)C3CCCCC3)sc2c1
    -0.72	-0.09
109. COc1ccc(-c2cc(=O)c3cc(OC(=O)Cc4ccccc4)ccc3o2)cc1
    1.2	1.2
110. Cc1cc(C)c2c(=O)cc(C(=O)N(Cc3ccc(C(C)C)cc3)C3CCS(=O)(=O)C3)oc2c1 (configuration not stated)
    -0.73	-1.7
111. COc1ccc2c(OC)c3ccoc3nc2c1OC
    nt	3.3
